Screening data: PubChem, National Center for Advancing Translational Sciences (NCATS)
HSD17B inh = HSD17B dehydrogenase inhibition; actives 7.6% (n = 75,000); Q99714; AID 893; recombinant HSD17B10, NADH fluorescence kinetic; many of its hits are not listed in these tables; Potency, µM (doses to about 57.1 µM), without a hit: at the top dose activity change, negative = inhibition, hits mostly inhibitors; active = well fitted inhibition curve with a large enough effect; inconclusive = small, poorly fitted or top-dose-only effect; inactive = no such curve, though single readings can be large or run the other way;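 note: the protocol describes HADH2 (HSD17B10) and not the HSD17B4 of the title; nearly all actives have a fitted effect of over 70% in size; most hits overshoot -100% by far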
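Activity followed as NADH fluorescence increase (ex 360, em 450 nm) every 30 seconds for 4 min, using final 90 uM beta-hydroxybutyryl CoA and 1 mM NAD+. Recombinant His-tagged enzyme, 20 nM, pH 9.0 Tris buffer, 15 min compound preincubation.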
* = called active by the depositor; [ ] = remark or other dose. % is set by controls: 0 for no effect and ±100 for the full control effect; potency is the fitted concentration of half-maximal effect.

Screening Cc1cc(C(=O)N(C)CC(=O)Nc2ccccc2C(F)(F)F)c(C)o1 returned HSD17B inh 11%.
Screening CC(=O)N1CCC2(CC1)CCN(C(c1ccccc1)c1ccccc1)CC2 returned HSD17B inh -5%.
`N[C@@H](Cc1ccnnc1)C(=O)O` gave HSD17B inh 11%[11.4 µM].
For O=C(Nc1ccccc1)c1cccnc1N1CCOCC1 the results were HSD17B inh 4%.
For COc1ccc(-c2oc3cc(OC)ccc3c2C(=O)c2ccc(C#N)cc2)cc1 the results were HSD17B inh -3%.
For Cn1c(SCC(=O)OC2CCCCC2)nnc1-c1ccc(S(=O)(=O)N2CCCC2)cc1 the results were HSD17B inh -11%.
Screening Cc1cc(CNC(=O)Nc2ccc3c(c2)OCO3)nn1C returned HSD17B inh 4%.
CC1CCN(CCCNC(=O)CN2CCN(Cc3ccc(Cl)cc3)C2=O)CC1 was read as HSD17B inh 11%.
CCC(c1nnnn1CCc1ccccc1)N(Cc1ccco1)Cc1cc2c(C)ccc(C)c2[nH]c1=O (centres undefined) was read as HSD17B inh 25µM*.
`O=S(=O)(c1ccc2ccccc2c1)N1CCCCC1` gave HSD17B inh -7%.
CC1(C)C=Cc2cc3ccc(=O)oc3cc2O1 was read as HSD17B inh 32µM*.
c1nc(NCCN2CCOCC2)c2cc(-c3ccc4c(c3)OCO4)ccc2n1 was read as HSD17B inh inconclusive.
`COc1ccccc1OCC(O)CN1CCN(CC(=O)Nc2c(C)cccc2C)CC1` (centres undefined) gave HSD17B inh 5%.
Screening CC1CCN(S(=O)(=O)c2cc(Br)cc(C(=O)NC3=NCCS3)c2)CC1 returned HSD17B inh -5%.
For CCOc1ccc(C2C(C#N)=C(N)Oc3cc(C)n(CCN(C)C)c(=O)c32)cc1OCC (centres undefined) the results were HSD17B inh -5%.
For O=C(CSc1nnc(-c2ccc(Cl)cc2)n1Cc1ccco1)Nc1ccc2c(c1)OCCO2 the results were HSD17B inh 20µM*.
For COc1ccc(-c2nnn(CC(=O)N(Cc3cccs3)C(C)C(=O)NC3CCCC3)n2)cc1OC (centres undefined) the results were HSD17B inh -16%.
O=C(NCCCNC1CCCCC1)c1ccc(/C=N/O)nc1 was read as HSD17B inh 9%.
For COCCNC(=O)Cn1ncc2ccsc2c1=O the results were HSD17B inh -2%.
Screening Cc1ccccc1C(=O)Nc1c(C(=O)N2CCCC2)cnn1-c1ccccc1 returned HSD17B inh 1%.
Screening CCOC(=O)N1CCN(C(=O)c2csc3c2CCCCC3)CC1 returned HSD17B inh -1%.
For CC(=O)NCCc1csc(-c2ccccc2)n1 the results were HSD17B inh 7%.
For CCOc1nc(C#N)nc(N2CCCCC2)n1 the results were HSD17B inh -3%.
Screening Cc1cccc(Cn2c(=O)c3c(nc4n3CCCN4Cc3ccccc3)n(C)c2=O)c1 returned HSD17B inh -22%.
`NC(=O)c1c(NC(=O)CN2C(=O)CCC2=O)sc2c1CCCCC2` gave HSD17B inh -5%.
Screening C[C@@H](C(=O)Nc1ccc2ccccc2c1)[C@@H]1C[C@@]1(C)[C@@H](NC(=O)Oc1ccc(F)cc1)c1ccccc1 returned HSD17B inh -2%.
Cn1c(Cn2nnc3ccccc32)nnc1SCC(=O)c1ccc(F)cc1 was read as HSD17B inh -2%.
Cc1ccccc1-c1noc(N)c1C#N was read as HSD17B inh -1%.
For CCCn1c(C)nc2c(NCCCCN3CCCC3)nc(C)nc21 the results were HSD17B inh 19%.
For Oc1c(C(c2cccc(F)c2)N2CCN(Cc3ccccc3)CC2)sc2ncnn12 (centres undefined) the results were HSD17B inh 4%.
`O=C(O)CN1C(=O)c2cccc(Oc3ccc(Cl)cc3)c2C1=O` gave HSD17B inh 0%.
`CC1(C(=O)N(CC(=O)NC2CCCC2)C2CCCC2)CC(=O)N=C2C=CC=CN21` (centres undefined) gave HSD17B inh 25µM*.
For OC1C=CSc2nc3ccccc3n21 (centres undefined) the results were HSD17B inh 4%.
For O=C1c2ccccc2-c2ccc(N(Cc3ccc(Br)cc3)Cc3ccc(Br)cc3)cc21 the results were HSD17B inh 2%[11.4 µM].
`CSc1nc2nc(C)cc(-c3ccccc3)n2n1` gave HSD17B inh 32µM*.
Screening N#CCSc1nnc(C2CCCCC2)n1-c1ccccc1 returned HSD17B inh 1%.
For Cc1ccc(NC(=O)NC(=O)CN2C(=O)NC3(CCCCCCC3)C2=O)c(C)c1 the results were HSD17B inh -1%.
`CCn1c(CNc2ccc(Cl)cc2)nnc1SCC(=O)NCc1ccccc1` gave HSD17B inh -6%.
For Cc1nn2c(-c3cccc(NC(=O)CN4CCOCC4)c3)nnc2c2ccccc12 the results were HSD17B inh -20%.
Screening Cc1ccc(C(c2nnnn2Cc2cccs2)N2CCN(Cc3ccc4c(c3)OCO4)CC2)cc1 (centres undefined) returned HSD17B inh 7%.
CCCc1nnc(SCC(=O)N2CCOCC2)n1CCCOC was read as HSD17B inh 5%.
Screening COc1cccc2[nH]c3c(N4CCC(C(N)=O)CC4)ncnc3c12 returned HSD17B inh 25µM*.
COc1cc2c(cc1OC)C(C(=O)N1CCOCC1)C(c1cccs1)N(C)C2=O (centres undefined) was read as HSD17B inh 8%.
Oc1ccc(N2CCN(C(c3ccncc3)c3nnnn3C3CCCC3)CC2)cc1 (centres undefined) was read as HSD17B inh inconclusive.
`COC(=O)CSc1nc2c(c(-c3ccc(C)o3)c1C#N)CCCC2` gave HSD17B inh inconclusive.
c1ccc(CN2C3=NCCCN3c3ccccc32)cc1 was read as HSD17B inh 11%.
Screening COc1cccc(C2=NOC(C(=O)NCc3ccccc3)C2)c1 (centres undefined) returned HSD17B inh 1%.
For Cn1c(SCc2ccc(F)cc2)nnc1-c1cccs1 the results were HSD17B inh -5%.
For Cc1cccc(NC(=O)C2CCN(S(=O)(=O)c3cccs3)CC2)n1 the results were HSD17B inh 4%.
Screening COc1ccc(C)cc1NC(=O)C1CCCN1S(=O)(=O)c1ccc2c(c1)CCC(=O)N2 (centres undefined) returned HSD17B inh 6%.

Retrieved by compound from above, 6 records:
Screening COc1cccc(C2=NOC(C(=O)NCc3ccccc3)C2)c1 (centres undefined) returned HSD17B inh 1%.
For Cc1cccc(NC(=O)C2CCN(S(=O)(=O)c3cccs3)CC2)n1 the results were HSD17B inh 4%.
For Cn1c(SCc2ccc(F)cc2)nnc1-c1cccs1 the results were HSD17B inh -5%.
Screening COc1cccc2[nH]c3c(N4CCC(C(N)=O)CC4)ncnc3c12 returned HSD17B inh 25µM*.
Oc1ccc(N2CCN(C(c3ccncc3)c3nnnn3C3CCCC3)CC2)cc1 (centres undefined) was read as HSD17B inh inconclusive.
Screening COc1ccc(C)cc1NC(=O)C1CCCN1S(=O)(=O)c1ccc2c(c1)CCC(=O)N2 (centres undefined) returned HSD17B inh 6%.

(listing goes on)
Screening CCOC(=O)C1=C(N)N(c2ccc(N3CCCCC3)cc2)C(=O)C1 returned HSD17B inh -2%.
C=C[C@]1(C)CC(=O)[C@@]2(O)[C@@]3(C)C(O)CCC(C)(C)C3C(O)C(OC(C)=O)[C@@]2(C)O1 (some centres undefined) was read as HSD17B inh 6%.
`Cc1ccc(C)c(-n2c(SCC(N)=O)nnc2-c2ccccn2)c1` gave HSD17B inh 7%.
Screening COc1cc(C(=O)Oc2c(CN3CCOCC3)cc(Cl)c3cccnc23)cc(OC)c1OC returned HSD17B inh -3%.
O=C(Nc1ccccc1C(=O)N1CCOCC1)c1ccncc1 was read as HSD17B inh 3%.
COc1ccccc1NC(=O)CNC(=O)c1ccc(F)cc1 was read as HSD17B inh 4%.
`c1ccc2c(c1)nnn2Cc1nnc2sc(-c3ccc4c(c3)OCCO4)nn12` gave HSD17B inh 16µM*.
Screening Cn1c(=O)c2cn(Cc3ccc(Cl)cc3)cc2n(C)c1=O returned HSD17B inh -3%.
`COc1ccc(CNC(=O)CSc2ncnc3nc[nH]c23)cc1` gave HSD17B inh -3%.
COCCn1c(COc2ccc(Cl)cc2)nnc1SCC(N)=O was read as HSD17B inh 4%.
`CCN(CC)S(=O)(=O)c1ccc2c(c1)c(=O)c(C(=O)NCCOC)cn2C` gave HSD17B inh 2%.
CCNc1nc(NC(C)C)nc(NS(=O)(=O)c2ccc(Cl)cc2)n1 was read as HSD17B inh 4%.
Screening Cc1coc(C)c1C(=O)CC1(O)C(=O)N(CCc2ccccc2)c2ccccc21 (centres undefined) returned HSD17B inh -16%.
COc1cccc(N(C(=O)Cn2nnc3ccccc32)C(C(=O)NCc2ccco2)c2cccnc2)c1 (centres undefined) was read as HSD17B inh 2%.
For CCOc1ccc(OCC)c(NC(=O)CN2CCN(c3cccc(C)c3)CC2)c1 the results were HSD17B inh -1%.
Screening O=[N+]([O-])c1ccc2c(N=Nc3ccc4ccccc4c3O)c(O)cc(S(=O)(=O)O)c2c1 returned HSD17B inh 3.2µM*.
For CC(C)(C)Nc1nc(C(N)=O)nc(N2CCOCC2)n1 the results were HSD17B inh 4%.
For CC(C)(c1cc(Br)c(OCC(Br)CBr)c(Br)c1)c1cc(Br)c(OCC(Br)CBr)c(Br)c1 (centres undefined) the results were HSD17B inh -2%.
CCC(=O)Nn1c(C)nnc1C was read as HSD17B inh -6%.
For Oc1ccc(N=Cc2ccc(O)c(O)c2)cc1 the results were HSD17B inh inconclusive.

Entries from the list above that have two or more sulfur atoms:
For Cn1c(SCC(=O)OC2CCCCC2)nnc1-c1ccc(S(=O)(=O)N2CCCC2)cc1 the results were HSD17B inh -11%.
Screening CC1CCN(S(=O)(=O)c2cc(Br)cc(C(=O)NC3=NCCS3)c2)CC1 returned HSD17B inh -5%.
For Cn1c(SCc2ccc(F)cc2)nnc1-c1cccs1 the results were HSD17B inh -5%.
For Cc1cccc(NC(=O)C2CCN(S(=O)(=O)c3cccs3)CC2)n1 the results were HSD17B inh 4%.

The results go on:
Screening COc1cccc(NC(=O)n2nc(N)cc2-c2ccc(Cl)cc2)c1 returned HSD17B inh -1%.
Screening Cc1ccc2c(c1)N(CC(=O)N1CCCCCC1)C(=O)CO2 returned HSD17B inh 11%.
`CC1CCC2(CC1)NC(=O)N(Cc1nc(-c3ccccc3)no1)C2=O` (centres undefined) gave HSD17B inh -7%.
For CCCn1c(=O)c(C(=O)NCc2cccnc2)c(O)c2ccccc21 the results were HSD17B inh -109%.
Cc1[nH]c2ccc(F)cc2c(=O)c1SC(F)(F)C(F)F was read as HSD17B inh -22%.
For COc1ccc(C(=O)OCCN2CCOCC2)cc1OC the results were HSD17B inh -7%.
For Cc1nc(C)n(C(C)CC(=O)O)n1 (centres undefined) the results were HSD17B inh 10%.
Screening O=C(NC1CCCCC1)c1ccc(Cn2cc(Br)cn2)o1 returned HSD17B inh 0%.
For CCCNC(=O)c1cc(SC)ccc1Cl the results were HSD17B inh 11%.
Screening Cc1ccc(C)c(NC(=O)CN(C)S(=O)(=O)c2ccc(F)cc2)c1 returned HSD17B inh 6%.
`O=c1c2ccccc2nnn1CSc1nnc(Nc2ccccc2)s1` gave HSD17B inh -3%.
For Cc1ccnc(SCCn2c(N3CCC(C)CC3)nc3c2c(=O)n(C)c(=O)n3C)n1 the results were HSD17B inh 2%.
Screening CCC(Sc1nncn1C)C(=O)Nc1nnc(-c2ccc(Cl)cc2)s1 (centres undefined) returned HSD17B inh -3%.
For CCCCn1nc(CC(=O)O)c2ccccc2c1=O the results were HSD17B inh 2%.
Screening COc1nc(C#N)c(N2CCOCC2)o1 returned HSD17B inh 5%.
`CCCCCCOc1ccc(OCC(O)CN2C(=O)NC(C)(C)C2=O)cc1` (centres undefined) gave HSD17B inh -3%.
CC1CCCCC12NC(=O)N(Cn1nnc3ccccc3c1=O)C2=O (centres undefined) was read as HSD17B inh 5%.
CN(C(=O)c1ccncc1)C1CC(C)(C)N(O)C(C)(C)C1 was read as HSD17B inh 4%.
`Cc1[nH]c2ccccc2c1-c1cc(-c2cc(-c3c(C)[nH]c4ccccc34)on2)no1` gave HSD17B inh -1%[11.4 µM].
`NC(=O)c1cccc(S(=O)(=O)N2CC(c3ccccc3)CC2=O)c1` (centres undefined) gave HSD17B inh -1%.
`Cc1occc1C(=O)Nc1nn[nH]n1` gave HSD17B inh -2%.
COc1ccccc1Nc1nc(N)nc(CN2CCOCC2)n1 was read as HSD17B inh 4%.
`CCN(CC)C[C@@H](O)c1ccc2ccc3ccccc3c2c1` gave HSD17B inh 4%[11.4 µM].
`O=C(Nc1ccc(F)cc1F)N1CCN(C/C=C/c2ccccc2)CC1` gave HSD17B inh 2%.
COC(=O)Cc1c(C)nc2nc(-c3ccco3)[nH]n2c1=O was read as HSD17B inh inconclusive.
`O=C1CCCC=C1[C@H](O)c1ccc([N+](=O)[O-])cc1` gave HSD17B inh 6%[11.4 µM].
For Cn1c(Cn2c(=O)sc3ccccc32)nnc1SCC(=O)Nc1cccc(F)c1 the results were HSD17B inh 5%.
Screening CCOC(=O)NC(=O)CN1C(=O)NC(C)(c2ccccc2)C1=O (centres undefined) returned HSD17B inh 13%.
Screening Cc1noc(C)c1-c1cncnc1Nc1ccccc1 returned HSD17B inh -22%.
Screening COc1cc(NC(=O)C23CC4CC(C2)CC(n2nnc(C)n2)(C4)C3)c(OC)cc1Cl returned HSD17B inh 4%.
For Cc1coc(NC(=O)CSc2nc(-c3ccncc3)cc(C(F)(F)F)c2C#N)n1 the results were HSD17B inh -6%.
Cn1c(Cn2c(=O)sc3ccccc32)nnc1SCC(=O)Nc1cccc(Cl)c1 was read as HSD17B inh -53%.
`Cc1nc(-c2ccc(NS(C)(=O)=O)cc2)cs1` gave HSD17B inh 9%.
For O=C(CSc1nn(-c2ccc(Cl)cc2)c(=S)s1)N1CCN(C(=O)c2ccco2)CC1 the results were HSD17B inh -3%.
`CC(=O)Nc1c(Cl)n(C(C)=O)c2ccccc12` gave HSD17B inh 5%.
Screening Cc1ccc2c(CNCc3ccco3)cc(=O)oc2c1 returned HSD17B inh -16%.

These rows are one share of the data; rates above refer to the full screens.
